Vif A3G: inhibitors of Vif binding to APOBEC3G peptide, primary screen, biochemical, TR-FRET, GST-Vif 1-94, biotin-A3G peptide, dose response retest (AID 1117319). Virion infectivity factor (Human immunodeficiency virus type 1 group M subtype B (isolate …. inhibition, %; hits with a dose series show IC50 in µM. TR-FRET GST-Vif / biotin-A3G peptide binding; higher % means a stronger effect; test concentration not given here; strong numbers were not always called active. 0.57% of 260,000 active;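 active means above the screen mean plus three standard deviations and confirmed in dose response; inconclusive means results disagree or hit not tested in dose response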;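 further: Vif residues 1-94 fused to GST binding biotinylated APOBEC3G peptide 110-148; 0% = full assay without inhibitor and 100% = GST in place of GST-Vif; retest series ran down from 100 µM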
RanGTP-Impb inh: inhibitors of RanGTP-importin-beta interaction, primary screen, biochemical, FRET, CFP-Ran, YFP-importin-beta, homogeneous; 1.1% of 300,000 active; cell-free CFP-Ran/YFP-importin-beta FRET ratio; inhibition, % (test concentration not listed); Ran GTPase (GTP-bound) - importin-beta complex; AID 2216, 2009;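 active means most replicates above 15%; inconclusive means exactly half above 15%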;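 further: 0% = DMSO wells and 100% = Ran loaded with GDP instead of GTP; wells of about 40 µL received 100 nL stock; the first replicate is given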
T cruzi repl: inhibitors of intracellular T. cruzi growth, primary screen, luminescence, NIH3T3 host cells | T. cruzi beta-gal in NIH3T3, 90 h | inhibition, % (test concentration not listed) | 1.4% of 300,000 active | AID 1885, 2009;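 active means mean inhibition across valid replicates above about 55%, limit read from the data; inconclusive means mean below that limit but half or more replicates reach it; inactive means mean below it, under half of replicates reach it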;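 further: signal also drops with host cell toxicity which is not excluded here; 0% = plate median of DMSO wells and 100% = zero luminescence signal; higher percent means less beta-gal luminescence so fewer parasites; stock transfer was 50 nL into about 50 µL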
rRNA inh HTS: reduced GFP signal of wild-type E. coli, primary screen, bacterial rRNA inhibitor project, GFP/RFP fluorescence, OD600, single point; GFP signal change (wild-type ribosome), % (concentration not given with the values); E. coli WT GFP vs humanized-ribosome RFP mutants, 24 h; active compounds read low; DMSO median 0, no signal -100; 1.6% of 350,000 active; AID 720706, 2013;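 active means significant combined selectivity score with lowered wild-type GFP, culture density cut under 30%, mutant RFP and density less affected; inactive means any of these conditions unmet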; further: one replicate is shown; some compounds called inactive have numbers as strong as hits
Bfl-1 A1 inh: caspase 3/7 activation in MEF A1-2A-BIM cells, primary screen, A1 inhibitor project, cell-based, luminescence, HTS; Caspase-Glo 3/7 luminescence, 3 h; percent of clofoctol response, vehicle zero; caspase activation, % (concentration not given with the values); 0.066% of 330,000 active; AID 2462, 2010;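 active means over half of replicate activation scores above 10%, or exactly half above 10 with the replicate mean above 10; inconclusive means replicate mean below 10 yet half the replicates above 10; inactive means over half of replicates below 10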;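 further: wells of about 30 µL received 50 nL stock; many hits fall short of the cut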
AF4-AF9 inh: inhibitors of AF4 peptide binding to AF9, primary screen, biochemical, AlphaScreen, biotin-AF4 peptide, FLAG-AF9, single point; Protein AF-9 (Homo sapiens), P42568; inhibition, % at 10 µM; 0.47% of 350,000 active;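 active means every replicate reaching a set inhibition limit, whatever the replicate mean, cut at about 25% in these data; inconclusive means mean inhibition reaches that limit but some replicates miss it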;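 further: 0% = plate neutral control median and 100% = total signal loss; the record names both 10 and 1 µM as test concentration; the first replicate is given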
Target sequence (P42568 whole entry, looked up): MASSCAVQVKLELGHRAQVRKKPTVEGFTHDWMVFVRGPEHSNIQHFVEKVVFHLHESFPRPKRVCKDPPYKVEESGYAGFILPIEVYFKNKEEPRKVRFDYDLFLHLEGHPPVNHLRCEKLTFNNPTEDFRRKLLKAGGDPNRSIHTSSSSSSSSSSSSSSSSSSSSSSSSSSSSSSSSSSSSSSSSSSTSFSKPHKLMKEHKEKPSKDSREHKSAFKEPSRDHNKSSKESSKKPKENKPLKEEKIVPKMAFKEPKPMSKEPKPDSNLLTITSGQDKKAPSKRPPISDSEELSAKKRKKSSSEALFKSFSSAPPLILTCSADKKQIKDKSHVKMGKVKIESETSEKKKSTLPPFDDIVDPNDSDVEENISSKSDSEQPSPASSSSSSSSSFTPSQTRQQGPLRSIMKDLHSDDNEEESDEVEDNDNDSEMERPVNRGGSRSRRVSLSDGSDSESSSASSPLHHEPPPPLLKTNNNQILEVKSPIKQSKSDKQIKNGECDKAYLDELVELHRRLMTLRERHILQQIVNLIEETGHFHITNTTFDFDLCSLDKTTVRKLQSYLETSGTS
Beta apoptosis: inhibitors of cytokine-induced beta cell apoptosis, primary screen, luminescence; INS-1E cytokine-induced death, ATP luminescence, 48 h; percent of positive-control rescue, neutral wells zero; 0.8% of 300,000 active; AID 435005, 2010; protection from apoptosis, % (concentration not given with the values);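 active means all replicates at 75% or more, or half of them and the mean; inconclusive means half reach 75% but not the mean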;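 further: 0% = cytokine-treated negative control wells and 100% = positive control rescue; higher means more ATP so stronger rescue from cytokine killing; wells of about 40 µL received 100 nL stock; the first replicate is given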
Calb FLC: C. albicans growth inhibition with fluconazole, primary screen, CaCi-2 strain, Alamar Blue fluorescence. growth inhibition, % (no concentration beside the values). 0.57% of 300,000 active. C. albicans CaCi-2 (fluconazole-resistant clinical isolate) + fluconazole, 48 h;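 active means most replicates above 75%; inconclusive means exactly half above 75%; inactive means most below 75%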;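 further: all wells also contain fluconazole at 8 µg/ml as a sub-toxic cotreatment; 0% = median of DMSO wells and 100% = median of geldanamycin control wells; wells of about 8 µL received 7.5 nL stock; the first replicate is given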
rRNA inh HTS OD600: recorded beside rRNA inh HTS, whose call it bears; OD600 change, %; measured here: OD600 growth;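 optical density of the mix in the first replicate; 0 = DMSO median and -100 = no signal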
rRNA inh HTS RFP: also measured in rRNA inh HTS; calls as there; RFP signal change, %; measured here: RFP humanized mutant strains;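 first replicate; 0 = DMSO median and -100 = no signal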
* hit, by the source's call; ? = inconclusive; . = not tested or not shown; & = joins results of further samples. Some of the compounds tested; the hit share may differ from the screen's.

SMILES	Vif A3G	RanGTP-Impb inh	T cruzi repl	rRNA inh HTS	rRNA inh HTS OD600	rRNA inh HTS RFP	Bfl-1 A1 inh	AF4-AF9 inh	Beta apoptosis	Calb FLC
CCCNC(=O)C1(CC2CC(c3ccccc3)=NO2)CCN(C(=O)c2cc(OCC)c(OCC)c(OCC)c2)CC1 (centres undefined)	.	-0.7	8	-1	-8	8.7	0.1	0.1	-14	0
Oc1ccc2c(ccc3[nH]cnc32)c1	10%	-4.9	-18	2	4	3.8	0.3	1.6	-14	34
CN(C)c1ncccc1-c1nc2ccccc2s1	.	1.5	-8	-15	-12	1.3	0.0	-1.2	-3	-8
COc1ccc(/C=N/OCC(=O)Nc2nc3ccccc3s2)cc1OC	.	4.7	2	.	.	.	-5.4	.	1	2
CN(Cc1ccccc1)C(=O)COC(=O)CNS(=O)(=O)c1ccc2ccccc2c1	2%	-0.5	-14	-8	-7	-4.1	-0.3	0.1	-7	1
COc1ccc(-c2cc3c(=O)n(CC(=O)NCCCN4CCC(N5CCCCC5)CC4)ncn3n2)cc1	.	1.2	30	13	9	2.2	0.4	8.7	5	.
COC(=O)c1cc(OC)c(OC)cc1NC(=O)C1CCCO1 (centres undefined)	4%	0.3	7	.	.	.	0.2	.	-3	-5
O=C(Nc1cccc(F)c1)C1CCN(C(=O)c2ccc(Br)cc2)CC1	1%	1.4	-19	.	.	.	.	.	0	-9
Nc1nnc(SCC(=O)Nc2cc(S(=O)(=O)N3CCOCC3)ccc2N2CCCC2)s1	-3%	.	.	13	15	1.6	1.0	1.7	-2	.
CN1CCN(C(=O)CN2C(=O)NC(C)(c3ccc4ccccc4c3)C2=O)CC1 (centres undefined)	-4%	.	.	10	10	2.8	-0.1	1.7	-2	.
CCOC(=O)C1=C(C)NC(C)=C(C(=O)OC)C1c1cccc([N+](=O)[O-])c1 (centres undefined)	1%&-1%	0.6	21	.	.	.	0.1	0.3	-6	.
O=C(CN1CCCCCCC1)N/N=C/c1ccc([N+](=O)[O-])o1	-1%	4.7	58*	2	8	3.1	-0.4	3.6	9	7
COc1ccc2nc(NCCCO)[nH]c2c1	0%	-2.6	-6	.	.	.	0.3	.	-2	39
CS(=O)(=O)c1ccccc1C(=O)Nc1cccc(-c2nc3ccccc3o2)c1	.	2.6	7	-8	-15	0.2	-0.1	-3.8	1	1
COc1ccc(/C(C)=N\Nc2nc(-c3ccc(Cl)cc3)cc(C(F)(F)F)n2)cc1OC	.	-5.2	36	0	-4	-4.0	-0.2	4.3	8	28
C=CCNC(=S)Nc1c(C(=O)OC)[nH]c2cc(OC)ccc12	-7%	7.8	4	10	-8	-1.5	0.2	4.4	-6	-2
Cc1cc(C(=O)N/N=C/c2ccc(C)s2)n[nH]1	.	2.9	2	4	-5	4.5	-0.3	-12	-6	32
CN(C[C@H](c1ccccc1)N(C[C@H](Cc1ccccc1)N(CCc1ccccc1)N=O)N=O)N=O	4%	-19	34	-3	-5	0.0	-0.7	4.7	7	1
Cc1c(OC(C)C(=O)NCCCN2CCOCC2)ccc2c3c(c(=O)oc12)CCC3 (centres undefined)	.	-0.1	-2	11	14	2.7	0.6	-2.1	.	-1
COc1ccc2c(c1OC)CN(C)CCc1cc3c(cc1C(O)C2)OCO3 (centres undefined)	-4%	-2.2	1	.	.	.	-0.2	.	-5	-12
Cc1ccccc1CSc1nnc([C@@H]2CCCN2)o1	-4%	-5.2	-12	5	4	0.3	-0.5	-5.2	-5	-12
Cc1cccc(N2CCN(S(=O)(=O)c3ccc(Cl)nc3)CC2C)c1 (centres undefined)	0%	.	.	5	3	3.3	2.2	-1.2	-7	.
O=C(NCC(O)c1ccc([N+](=O)[O-])cc1)C1CCCCC1 (centres undefined)	-4%	1.0	-12	11	24	2.9	0.4	?	1	-2
Cc1nonc1NC(=O)CSc1nc(C23CC4CC(CC(C4)C2)C3)nc2ccccc12	.	1.3	30	11	6	-1.0	0.6	-6.1	10	-3
CCOc1ccc(N(CC(=O)Nc2ccc(OC)cc2)S(=O)(=O)c2c(C)[nH]c(=O)[nH]c2=O)cc1	3%	-1.2	-13	2	-9	-5.4	-0.1	1.2	-2	23
COc1ccccc1C1C2=C(COC2=O)Nc2cc3c(cc21)OCO3 (centres undefined)	?	-0.2	49	.	.	.	0.2	.	49	-3
Nc1cccc2c1C(=O)N(c1ccccc1)C2=O	.	8.2	-29	8	15	1.0	-0.4	-3.1	.	0
CCCN(C(=O)Cn1ncc2c([nH]c3ccccc32)c1=O)c1ccccc1C	-2%	-0.3	14	9	15	-0.2	1.0	-8.5	8	-16
CC(=O)c1sc(NC(=O)CCS(=O)(=O)c2ccc(C)cc2)nc1C	-6%	2.1	21	11	4	1.1	1.3	-0.2	.	-8
O=C(CNC(=O)c1ccccc1)OC1CCCCC1	.	0.3	-11	15	7	2.1	-0.4	-17	-5	-13
Cc1ccc(S(=O)(=O)N(C)c2nonc2C)cc1	-8%	0.0	-8	.	.	.	0.3	.	-1	-11
Cc1nc(NC(=O)CCl)sc1C(=O)N(C)C	6%	-3.7	0	15	9	-0.3	0.9	-0.9	-10	-23
NC1=NN(c2cccc(C(=O)O)c2)C(=O)C1	10%	-1.4	-4	.	.	.	-0.6	.	-5	-8
Cc1ccc(S(=O)(=O)N2C(=O)CCC2C(=O)N2CCN(C)CC2)cc1 (centres undefined)	?	.	3	.	.	.	-0.3	.	-6	-5
O=C(CS(=O)c1ccc(F)cc1)Nc1ccccc1Cl (centres undefined)	-6%	-1.0	-6	10	5	-2.6	-0.6	-3.4	-4	2
COc1cc(C(O)P(=O)(OCC(C)C)c2ccc(N(C)C)cc2)cc(OC)c1OC (centres undefined)	15%	0.4	-23	8	2	0.6	0.6	0.3	.	0
CC(C)COc1ccc(C(=O)N/C(=C/c2cccc([N+](=O)[O-])c2)C(=O)O)cc1	.	3.1	1	-2	5	3.6	0.0	1.5	4	3
COc1ccccc1N(CC(=O)Nc1ccc(C)cc1Cl)S(=O)(=O)c1cccs1	-4%	.	.	-5	1	-2.7	0.4	-2.7	-11	.
Cc1cc(C)nc(N/N=C/c2c[nH]c3ccccc23)n1	-4%	3.8	-8	15	7	2.4	0.6	3.5	-7	-7
CC(=O)N1CCC(N(CCN2CCOCC2)C(=S)Nc2c(C)cccc2C)CC1	.	-2.5	-15	8	-5	-0.8	1.7	-4.4	6	-8
COc1cc(S(=O)(=O)N2CCOCC2)ccc1NC(=O)COC(=O)CC12CC3CC(CC(C3)C1)C2	3%	1.3	21	.	.	.	0.2	.	-1	2
COC(=O)CS(=O)(=O)c1ccc(C)cc1	1%	2.5	-11	24	20	3.9	-0.6	-1.7	-5	-7
O=[N+]([O-])c1ccccc1S(=O)(=O)NC1CCCCCCC1	9%	8.5	7	-39	-56	-10	-0.2	7.1	0	-8
O=C(COc1cccc2c1CCN(Cc1ccccc1F)C2=O)N1CCCCC1	4%	-3.2	18	-39*	-11*	0.8*	0.1	-2.4	-12	4
COc1ccc(C)cc1N(CC(=O)NCCSCc1cccc(Cl)c1)S(C)(=O)=O	-2%	0.9	6	-7	-11	-2.6	0.6	4.5	2	7
Cn1nc(-c2ccccc2)c(CSc2cccc(Cl)c2)c1Cl	-5%	0.3	7	.	.	.	1.2	.	-1	-1
CC1CCN(CC(O)COC2CC(C)CCC2C(C)C)CC1 (centres undefined)	.	-4.2	20	-11	-26	1.6	0.3	1.2	10	-22
COc1ccc(/C(C)=N/Nc2nc3ccccc3nc2C)cc1OC	-3%	6.7	-34	-4	0	2.0	-0.3	3.5	29	-4
O=C(Nc1ccc2c(c1)CCC2)C1CCCO1 (centres undefined)	20%	?	.	12	13	-4.5	-1.4	5.4	-2	-10
Cc1onc(-c2c(Cl)cccc2Cl)c1NC(=O)N1CCSCC1	9%	-5.6	2	16	0	1.9	-0.4	-1.8	2	2

More entries:
SMILES	Vif A3G	RanGTP-Impb inh	T cruzi repl	rRNA inh HTS	rRNA inh HTS OD600	rRNA inh HTS RFP	Bfl-1 A1 inh	AF4-AF9 inh	Beta apoptosis	Calb FLC
C=CCn1c(O)c(N=Nc2ccccc2O)c2ccccc21	.	.	.	4	-2	4.4	-0.4	-0.4	-4	.
O=C1OC(/C(=C\NCc2ccccc2)[N+](=O)[O-])c2ccccc21 (centres undefined)	-10%	-2.6	-14	2	6	-0.7	-0.4	0.0	-6	-4
Cc1cc(C(F)(F)F)n(-c2ccc(N)cc2)n1	0%	-5.0	-22	10	-4	-15	1.4	-4.1	5	3
O=C1NC(=O)C2(CCCCCCCCCCC2)N1	.	-0.1	2	4	7	-3.0	-0.5	-0.5	-11	5
O=C(Cc1cccs1)NCCCc1ccccc1	-5%	-0.2	-2	-3	1	-20	2.7	-1.9	-2	-15
O=C(CCCc1ccccc1)Nc1ccnn1C1CCN(Cc2ccc(CO)o2)CC1	.	7.7	-2	16	10	-0.5	1.1	-0.5	0	4
CCOC(=O)c1ccc(N2C(=O)CC(N3CCC(C(N)=O)(N4CCCCC4)CC3)C2=O)cc1 (centres undefined)	27%	.	.	16	-5	3.4	-0.2	-223	-1	.
CCc1ccc(NCCC(=O)c2ccc(Cl)cc2)cc1	-3%	3.4	33	.	.	.	0.1	.	.	-5
C=CCNC(=O)C1CC(=O)N(c2ccc(OCC(=O)Nc3cccc(OC)c3)cc2)C1 (centres undefined)	19%	1.1	-7	.	.	.	-0.1	.	4	12
COc1ccc(C)cc1NC(=O)C(Sc1nnc(-c2ccncc2)n1-c1ccc(Cl)cc1)c1ccccc1 (centres undefined)	.	-2.5	?	4	9	1.1	0.4	2.2	9	19
CCOC(=O)c1sc(=S)n(-c2cc(OC)ccc2OC)c1N	-7%	3.1	-12	.	.	.	0.1	.	2	26
CC(c1ccccc1)N(C)C(=O)CN1CCN(S(=O)(=O)c2ccc3c(c2)OCCCO3)CC1 (centres undefined)	.	.	.	0	-14	1.2	-2.2	-0.7	9	.
COc1ccccc1Nc1nc(-c2cccs2)cs1	8%	7.6	-3	5	1	3.4	-3.1	4.2	-6	4

Screens deposited in PubChem by several laboratories.
